Menin-MLL FL inh: qHTS Assay for Inhibitors Targeting the Menin-MLL Interaction in MLL Related Leukemias: Competition With Fluorescein Labeled MLL-derived Peptide; Fluorescence polarization, fluorescein-MLL peptide displacement from menin; FP activity change, % at 61.4 µM; AID 1766, 2009; 290,000 tested, under 10 active; inconclusive = falling polarisation curve, or a change in total fluorescence; inactive = total fluorescence flat and polarisation flat or rising; no compound was filed as active; the % refers to the polarisation; negative = inhibition;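 note: % of control where 0% means no effect; inhibitors lower the polarisation; unlabelled MLL peptide was the positive control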
gsp ag: qHTS for Agonist of gsp, the Etiologic Mutation Responsible for Fibrous Dysplasia/McCune-Albright Syndrome: qHTS | Potency, µM (doses to about 76.9 µM), for inactives: top-dose activation (cAMP increase), actives largely listed as activators | hit rate 0.13% among 340,000 | gsp mutant cells, cAMP HTRF, 30 min; control for the full effect not named in the record; active = well fitted activation curve with a large enough effect; inconclusive = small, poorly fitted or top-dose-only effect, or another doubt; inactive = no such curve, though single readings can be large or run the other way; cell line not stated here;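 note: phosphodiesterase inhibitor Ro 20-1724 added with compounds to block cAMP breakdown; potency is the fitted concentration of half-maximal effect; nearly all actives have a fitted effect of over 60% in size; about a fifth of the inactives were tested at one dose only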
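Cells stably selected in G418 were plated at 2000/well, grown 16-24 hr, then given compounds in DMSO with the PDE inhibitor […] (300 uM solution added) for 30 min at 37C; cAMP was read by HTRF.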
PINK1 expr mod: A Quantitative High throughput Screen to Identify Chemical Modulators of PINK1 Expression. PINK1 immunofluorescence, high-content cytometry, 24 h. Potency, µM (doses to about 76.6 µM), for inactives: at the highest dose activation (PINK1 increase), hits mostly activators. hit rate 0.2% among 410,000. AID 624263, 2012; active = well fitted activation curve with a large enough effect; inconclusive = small, poorly fitted or top-dose-only effect; inactive = flat fitted curve, though single readings scatter; cell line not stated here;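 note: potency is the fitted concentration of half-maximal effect; % of control where 0% means no effect; nearly all actives have a fitted effect of over 65% in size; a mitochondrial uncoupler was the plate control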
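Stable cell line treated 24 h with compounds at 5 concentrations (CCCP controls), then fixed and immunostained for PINK1 plus nuclear and cell stains; PINK1 immunofluorescence quantified by laser-scanning microplate cytometry.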
Sfp PPTase inh: qHTS Assay for Inhibitors of Bacillus subtilis Sfp phosphopantetheinyl transferase (PPTase); Potency, µM, inactives show max response, negative = inhibition, most hits filed as inhibitors; AID 1490, 2009; Biochemical Sfp PPTase activity, qHTS; hit rate 3.5% among 310,000; 4'-phosphopantetheinyl transferase ffp (Bacillus subtilis), Q9F4F7; active = well fitted inhibition curve with a large enough effect; inconclusive = small, poorly fitted or top-dose-only effect, or another doubt; inactive = no such curve, though single readings can be large or run the other way;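 note: the enzyme is Sfp with the accession as filed and its product quenches rhodamine fluorescence; potency is the fitted concentration of half-maximal effect; 0% = enzyme reaction without inhibitor and -100% = no enzyme wells; top concentration of the series not given in the record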
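Fluorescence-quenching assay: 15 nM Sfp-PPTase preincubated 15 min at room temperature with compound, then 5 uM rhodamine-CoA and 12.5 uM BHQ-2-labelled YbbR peptide added. Fluorescence (ex 525/em 598 nm) read at start and after 30 min; difference gives rate.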
gsp antagonist: qHTS for Antagonists of gsp, the Etiologic Mutation Responsible for Fibrous Dysplasia/McCune-Albright Syndrome: qHTS. gsp-mutant cells, cAMP HTRF, 30 min; control for the full effect not named in the record. hit rate 0.4% among 340,000. Potency, µM (series often up to 76.9 µM), for inactives: top-dose activity change, negative = inhibition, actives largely listed as inhibitors. AID 624288, 2012; active = falling curve of any shape with a large fitted effect; inconclusive = falling curve, mostly with a smaller effect; inactive = flat or rising curve; cell line not stated here;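 note: intracellular cAMP measured with PDE inhibitor Ro 20-1724 present during compound exposure; potency is the fitted concentration of half-maximal effect; % is set by controls: 0 for no effect and ±100 for the full control effect; nearly all actives have a fitted effect of over 65% in size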
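HTRF cAMP measurement after 30 min RT detection following 30 min, 37C compound treatment alongside […] (added as 300 uM solution) in G418-selected cells seeded at 2000/well and grown 16–24 h.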
D2 agonist: Beta-Arrestin HTS for Positive Allosteric Modulators of the Human D2 Dopamine Receptor: Agonists; D(2) dopamine receptor (Homo sapiens), P14416; DiscoveRx PathHunter D2 beta-arrestin, luminescence, 90 min; 100% = 57 uM dopamine signal; activation, % (concentration not given with the values); hit rate 0.084% among 360,000; AID 624465, 2012; in the data active = activation above about 40%; inconclusive = about 15% to 40%; inactive = below about 15%; note: compound concentration not given in the record; the text of the record calls up to 30% inactive
Target sequence (P14416 whole entry, looked up): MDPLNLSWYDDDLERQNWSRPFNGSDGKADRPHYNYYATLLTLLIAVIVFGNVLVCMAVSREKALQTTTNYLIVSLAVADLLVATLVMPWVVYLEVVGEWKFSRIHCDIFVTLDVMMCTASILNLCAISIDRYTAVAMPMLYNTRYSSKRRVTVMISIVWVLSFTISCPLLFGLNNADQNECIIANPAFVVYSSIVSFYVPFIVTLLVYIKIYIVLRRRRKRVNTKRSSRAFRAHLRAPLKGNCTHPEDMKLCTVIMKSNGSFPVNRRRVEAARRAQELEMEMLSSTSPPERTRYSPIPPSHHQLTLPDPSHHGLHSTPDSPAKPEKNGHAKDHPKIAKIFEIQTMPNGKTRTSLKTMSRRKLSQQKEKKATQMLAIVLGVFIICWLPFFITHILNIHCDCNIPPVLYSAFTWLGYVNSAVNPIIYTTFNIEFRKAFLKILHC
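Agonist mode: compounds alone added to overnight-plated D2 PathHunter cells for 90 min at 37 C, with 57 uM final dopamine (EC100) defining full response. Beta-arrestin recruitment detected by chemiluminescent reagent, read after 1 h at ambient temperature.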
ClpP mod: qHTS Assay for Activators of ClpP. ATP-dependent Clp protease proteolytic subunit (Bacillus subtilis (strain 168)), P80244. purified B. subtilis ClpP, FRET peptide cleavage, 20 min. Potency, µM (doses to about 57.5 µM), without a hit: at the highest dose activity change, negative = active. hit rate 1.9% among 340,000. AID 651965, 2013; active = well fitted falling curve with a large enough effect; inconclusive = small, poorly fitted or top-dose-only effect; inactive = no such curve, though single readings can be large or run the other way; note: potency is the fitted concentration of half-maximal effect; the source files actives as falling curves though it sought activators and does not explain the sign; nearly all actives have a fitted effect of over 65% in size; many hits overshoot -100%
Target sequence (P80244 whole entry, looked up): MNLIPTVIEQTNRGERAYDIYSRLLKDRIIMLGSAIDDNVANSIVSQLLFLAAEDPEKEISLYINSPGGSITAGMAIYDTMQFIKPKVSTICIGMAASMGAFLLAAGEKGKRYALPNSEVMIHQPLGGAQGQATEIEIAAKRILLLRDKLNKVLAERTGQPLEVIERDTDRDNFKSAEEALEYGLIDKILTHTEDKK
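Buffer: 100 mM Tris/HCl pH8, 100 mM KCl, 0.05% low protease BSA, 2.5% glycerol, 0.01% Tween-20. ClpP 10 microg/mL final; 20 min RT; delta FRET normalized to ADEP and DMSO controls.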
Active calls of the source: *; ? = inconclusive; . = not tested or not shown; & = joins results of further samples; [ ] = remark or other dose.

SMILES	Menin-MLL FL inh	gsp ag	PINK1 expr mod	Sfp PPTase inh	gsp antagonist	D2 agonist	ClpP mod
O=C1C2C3C=CC(C3)C2S(=O)(=O)C2C3C=CC(C3)C12 (centres undefined)	.	-39.3%[inhibitor]	0.8%	.	.	-11.0	1.4%
O=c1ccn([C@@H]2O[C@H](CNCc3c(OCc4ccccc4F)ccc4ccccc34)[C@@H](O)[C@H]2O)c(=O)[nH]1	.	.	-0.3%	.	.	-7.2	-1.1%
O=C(NCCNc1ccc([N+](=O)[O-])cc1)c1cccc2c(Br)cccc12	.	-14.0%	?	-18.2%	-3.9%	2.9	3.5%
NC(=O)CCn1c(C(=O)c2cccc([N+](=O)[O-])c2)c2ccccc2[n+]1[O-]	-1.6	29.7%	-0.1%	15.2%	-5.7%	-11.1	-0.3%
CCOC(Cn1c(SCc2cc(C(C)=O)ccc2OC)nc2ccccc2c1=O)OCC	1.4	5.2%	1.2%	8.1%	-4.2%	-2.5	-3.3%
COc1cc(C(=O)Sc2ccc(C)cc2)cc(OC)c1OC	1.2	5.9%	1.3%	-13.5%	-6.2%	6.5	-2.4%
Cc1cc(NC(=O)Nc2cccc3ccccc23)no1	5.2&-0.5	-11.6%	-0.4%	14.1%&8.7%	-8.9%	-2.9	-11.0%
O=C(Cn1cc(SCc2ccc(Cl)cc2)c2ccccc21)N1CCOCC1	-2.1	-21.6%	0.1%&0.9%	-6.8%	-13.3%	-0.8	-0.4%&-2.0%
C/C(=N\c1nc2ccccc2n1C)c1cc(Cl)ccc1O	-3.1	-50.8%[inhibitor]	0.8%	-9.5%	6.0%	-4.5	0.8%
COC(=O)C1C(=O)c2c(n[nH]c2C)CC1(C)C (centres undefined)	0.1	15.9%	13.2%[38.3 µM]	20.1%	1.3%	-0.6	1.6%
CC(=O)S[C@@H]1CC2=CC(=O)CC[C@]2(C)[C@H]2CC[C@@]3(C)[C@@H](CC[C@@]34CCC(=O)O4)[C@H]12	.	.	0.0%	.	-26.8%	-3.2	-0.9%
Cc1cccc(CSc2nnc(-c3cccs3)n2Cc2ccco2)c1	7.3	-2.1%	2.1%[38.3 µM]	-6.6%	-6.2%	-2.3	-3.0%
O=C1CC2CS(=O)(=O)CC2N1c1ccc(Cl)cc1Cl (centres undefined)	0.0	-3.8%	2.0%	14.7%	-0.5%	-6.6	0.4%
O=C(CNC(=O)c1cc(S(=O)(=O)N2CCCCC2)ccc1N1CCOCC1)Nc1ccc(F)c(F)c1	.	3.1%	6.5%	.	16.9%	-2.6	-2.3%
Cc1ccc(CSCCNS(=O)(=O)c2ccc([N+](=O)[O-])cc2)cc1	4.8	2.9%	1.3%	9.1%	-4.2%	7.1	-0.3%
CC1(C)CC(=O)C2=C(C1)OC1=C(C(=O)CC(C)(C)C1)C2c1ccc(O)cc1O	-3.5	1.6%	6.7%[38.3 µM]	7.94µM*	12.7%	-6.3	17.2%
CCCC1NC(=O)c2cccnc2-n2c1nc1ccc(Br)cc1c2=O (centres undefined)	.	?	0.0%	.	.	-10.2	-2.9%
CC(C)[C@H](NC(=O)[C@@H]1Cc2ccccc2CN1)C(=O)NC1CCCCC1	1.2	1.6%	1.7%	1.0%	6.3%	-5.4	0.1%
Cc1ccc(CN(c2ccc(C(=O)N3CCCC3)cc2)S(C)(=O)=O)cc1	2.9	0.0%	-1.2%	12.0%	-4.5%	0.7	0.4%
Cc1ccc(S(=O)(=O)N2CCOCC2)cc1NC(=O)CSc1nnc(COc2ccccc2F)n1N	.	5.1%	-0.4%	.	1.9%	-4.8	-1.2%
COc1ccc(NC(=O)CSc2nnc(-c3ccoc3C)n2CCc2ccccc2)cc1	1.5	-11.6%	0.2%	4.8%	-14.0%	-1.1	-2.1%
O=C(CCNC(=O)c1ccc(Br)cc1)Nc1cc(Cl)ccc1-n1cncn1	.	-14.1%[15.4 µM]	5.7%	.	-2.2%	-1.6	.
Cc1ccccc1-n1c(SCC(=O)N/N=C/C=C/c2ccccc2[N+](=O)[O-])nc2ccccc2c1=O	3.5	-2.2%[15.4 µM]	-0.7%	0.8%	-12.3%	3.3	.
CC(C)C(=O)N1CCC1(C)C(=O)Nc1cc(-c2ccccc2)nn1C (centres undefined)	.	.	0.2%	.	.	1.7	1.4%
COc1ccc(-c2nc3ccccn3c2C=O)cc1	0.3	9.5%	2.5%	24.0%	1.8%	11.1	-5.6%
(further entries)
SMILES	Menin-MLL FL inh	gsp ag	PINK1 expr mod	Sfp PPTase inh	gsp antagonist	D2 agonist	ClpP mod
Cc1ccc2nc(SCC(=O)Nc3cccc([N+](=O)[O-])c3)[nH]c2c1	1.8	6.7%	0.6%[38.3 µM]	14.2%	-29.8%	-1.0	-0.5%
Cc1ccc(NC(=O)CSCC(=O)Nc2ccc(N3CCOCC3)c(Cl)c2)cc1	2.5	?	1.6%	9.3%	-10.2%	-2.6	2.0%
CC(C)(C)NS(=O)(=O)c1ccc(-c2csnn2)s1	-7.3	-23.2%	0.8%	6.2%	23.4%	-2.7	1.2%
CCCNC(=O)/C(C#N)=C1\N=C(NC(=O)c2cccs2)c2ccccc21	4.7	19.8%	-0.4%	-2.1%	4.0%	-0.8	-2.1%
COC(=O)C(Cc1c[nH]c2ccccc12)NC(=O)C(=O)c1c[nH]c2ccccc12 (centres undefined)	.	9.0%	4.6%	19.5%	-30.5%	-2.6	-6.6%
Cc1ccc2c(c1)C(c1ccc(O)cc1)(c1ccc(O)cc1)C(=O)N2C	-5.2	2.8%[15.4 µM]	0.7%	-16.7%	-10.7%	-1.6	.
O=C(c1cc2ccccc2o1)N1CCN(Cc2ccc3c(c2)OCO3)CC1	.	-29.4%	0.1%	6.1%	-1.7%	-0.9	-1.1%
CCOC(=O)C1=C(C)N=c2s/c(=C/c3ccc(OCC(=O)O)cc3)c(=O)n2C1c1ccc(F)cc1 (centres undefined)	12.3	41.3%	-2.3%	79.4µM*	22.4µM*	3.2	0.3%
CC(C)(C)NC(=O)C1CCCN(S(=O)(=O)c2cccc3cccnc23)C1 (centres undefined)	2.0	-21.4%	-1.5%	27.3%	5.9%	-0.9	0.7%
COC(=O)c1cccc(N/C=C(\[N+](=O)[O-])S(=O)(=O)c2ccccc2)c1	1.9	-3.9%[15.4 µM]	3.7%	-5.2%	15.0%	-3.5	38.6%
NC(=O)c1cccn1-c1ncc(C(F)(F)F)cc1Cl	-2.2	-51.4%[inhibitor]	-0.4%	16.8%	0.5%	-0.8	.
CCn1ncc(/C=C/C(=O)C2CC2)c1C	6.5	3.0%	0.5%	11.0%	6.3%	0.3	-2.3%
O=C(COC(=O)Cc1n[nH]c(=O)c2ccccc12)NNC(=O)c1ccc(Cl)cc1	.	-32.9%[inhibitor]	-1.9%	.	0.8%	-12.9	-0.3%
Cc1cc(=O)oc2cc(NC(=O)c3ccccc3OC(F)F)ccc12	.	2.0%[15.4 µM]	?	8.0%	-5.6%	-5.7	-1.1%
O=S(=O)(Nc1ccc(N2CCOCC2)cc1)c1ccc2ccccc2c1	1.6	?	-0.5%	-10.0%	?	-0.4	-18.7%
Cn1nnc(NC(=S)NC(=O)c2ccc3ccccc3c2)n1	.	-9.1%	2.7%	.	.	-15.5	73.2%
O=C(NCc1cccnc1)c1cc(C(=O)C2CC2)c[nH]1	-0.1	1.0%[15.4 µM]	1.2%	?	11.2µM*	-4.1	.
COc1cccc(CNC(=O)COC(=O)c2ccc(N3CCCC3=O)cc2)c1	.	-1.7%	0.4%	.	.	-2.0	-1.6%
CCN(CC)c1ccc(NC(=O)CN2CCN(CC(=O)Nc3ccccc3F)CC2)cc1	6.3	-44.1%[inhibitor]	1.2%	2.8%	-7.5%	-1.3	-15.8%
CN1CCC(N2CCN(C3CN(C4CCCCC4)S(=O)(=O)C3)CC2)CC1 (centres undefined)	.	.	-0.9%	.	.	-5.4	-0.4%
CCCCN(C(=O)Cn1ncc(Cl)c(Cl)c1=O)c1c(N)n(CC(C)C)c(=O)[nH]c1=O	6.1	-1.9%	2.3%	-2.5%	-15.7%	-3.4	2.3%
Cc1ccc(C)c(OCCC(=O)OCC(=O)NC(=O)NC2CCCC2)c1	.	?	11.2%	.	-2.6%	-3.0	1.6%
COc1cccc(C2CC(c3ccc(C)cc3)=NN2C(=O)c2ccccc2F)c1OC (centres undefined)	-3.3	18.1%	4.5%	-4.4%	?	-1.3	-2.0%
c1ccc(C2=NNC(=NC3CC3)SC2)cc1	3.8	-26.9%	.	44.7µM*	-2.9%	-2.1	-2.1%
CC(O)CNc1nc(N)[nH]c(=O)c1N=Nc1ccccc1 (centres undefined)	.	-2.3%[15.4 µM]	-0.3%	.	-23.3%	-0.5	1.8%
(cont.)
SMILES	Menin-MLL FL inh	gsp ag	PINK1 expr mod	Sfp PPTase inh	gsp antagonist	D2 agonist	ClpP mod
O=C(Nc1ccc2c(c1)OCO2)c1ccncc1	6.4	-14.9%	-0.5%	32.3%	4.2%	-2.2	0.4%
CCOc1ccc2nc(NC(=O)CSc3ccc(Cl)cc3)sc2c1	2.9	-11.0%	3.8%	7.6%	-5.9%	5.6	-2.7%
CCn1nc(C)c(Br)c1-c1nc(-c2cccc(C)c2)no1	1.7	12.8%	0.1%	-13.1%	1.2%	-4.9	-2.2%
Cc1cccc2sc(NS(C)(=O)=O)nc12	-3.6	-39.0%[inhibitor]	1.1%	16.0%	2.8%	-2.7	.
COc1cc(C(=O)N/N=C(\C)Cn2nc([N+](=O)[O-])cc2C)ccc1O	.	9.2%	-2.7%	8.6%	2.2%	-1.0	-4.8%
Cc1ccc(/C=N/NC(=O)CNC(=O)Cc2ccccc2)o1	-1.5	3.0%	-0.8%	-0.6%	6.8%	-1.2	-2.1%
COc1cc(/C=C2/C(=O)N(c3ccc(Br)cc3)N=C2C)cc(OC)c1OC	.	?	8.1%	?	?	2.5	-2.3%
CC(C)c1ccc(OCC(=O)NC2CCCC2)cc1	-0.6	?	0.9%	2.8%	-6.8%	1.0	0.5%
CC(C)N1CCc2c(sc(NC(=O)c3nc4ccccc4s3)c2C(N)=O)C1	7.0	-0.8%[15.4 µM]	25.4%	-26.5%	-11.8%	-7.4	0.2%

Screening data deposited in PubChem BioAssay by National Center for Advancing Translational Sciences (NCATS).

Not a hit list (roughly 5.1% active in at least one column).
